FGF22 binding – FGF22 (human) thermal shift binding; calls only at 9.99 µM; 340,000 compounds, 1.5% hits; recombinant FGF22 thermal shift, SYPRO orange fluorescence; percent of sucrose octasulfate shift, DMSO zero; AID 651658; Q9HCT0;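 active = melting point raised past a set limit in the mean and every replicate; three in four hits are not shown here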
Target sequence (Q9HCT0 whole entry, looked up): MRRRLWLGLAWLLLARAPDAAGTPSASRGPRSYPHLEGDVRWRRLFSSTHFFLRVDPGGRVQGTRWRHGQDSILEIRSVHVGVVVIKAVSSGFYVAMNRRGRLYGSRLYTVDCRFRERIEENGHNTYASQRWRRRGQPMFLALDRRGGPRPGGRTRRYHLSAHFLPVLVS
Calls only; i = inactive. Some of the compounds tested; the hit share may differ from the screen's.

| FGF22 binding | Structure |
| --- | --- |
| i | COCC#Cc1ccc([C@H]2[C@H](CO)N3CCCCN(Cc4cncnc4)C[C@@H]23)cc1 |
| i | CCCN(C)C[C@@H]1Oc2cc(C#Cc3ccccn3)ccc2S(=O)(=O)N([C@@H](C)CO)C[C@@H]1C |
| i | COc1ccc(-c2cnc3c(c2)C(=O)N([C@H](C)CO)C[C@H](C)[C@@H](CN(C)C(=O)NC2CCCC2)O3)cc1 |
| i | CC(C)NC(=O)N[C@@H]1CC[C@H](CCNS(=O)(=O)c2ccc(F)cc2)O[C@@H]1CO |
| i | O=C(c1ccccn1)N1CC[C@@H]2[C@H](CO)Nc3ccc(C#Cc4ccccc4)cc3[C@@H]21 |
| i | C[C@H]1CCCCO[C@H](CN(C)S(=O)(=O)c2ccccc2)[C@@H](C)CN([C@@H](C)CO)C(=O)c2cc(NC(=O)Nc3ccc(F)cc3)ccc2O1 |
| i | COCC(=O)N1CC2(C1)[C@@H](c1ccccc1)[C@@H](CO)N2Cc1ccccc1OC |
| i | N#Cc1ccc(-c2ccc3c(c2)[C@H]2[C@H](CCN2C(=O)C2CC2)[C@@H](CO)N3)cc1 |
| i | C[C@@H]1CN([C@H](C)CO)C(=O)c2cc(-c3ccccc3F)cnc2O[C@H]1CN(C)Cc1cccc(F)c1 |
| i | CC(C)(O)C#Cc1ccc([C@H]2[C@H](CO)N3CCCCN(C(=O)c4ccc(F)cc4)C[C@@H]23)cc1 |
| i | COc1ccc([Si](C)(C)[C@@H]2[C@@H](CCn3cc(CCO)nn3)O[C@]3(C(=O)N(Cc4cccc(N5CCOC5=O)c4)c4ccccc43)[C@H]2C)cc1 |
| i | C[C@H](NC(=O)[C@H]1[C@H](CO)[C@H]2Cn3c(cccc3=O)[C@@H]1N2CCC(F)(F)F)c1ccccc1 |
| i | COc1ccccc1CNC(=O)C[C@H]1C[C@@H]2c3cc(NC(=O)Nc4ccccc4F)ccc3O[C@@H]2[C@@H](CO)O1 |
| i | CC(C)CC#Cc1ccc2c(c1)O[C@H](CN(C)C(=O)CN(C)C)[C@H](C)CN([C@@H](C)CO)S2(=O)=O |
| i | O=C(Nc1cccc(F)c1)N1C[C@@H]2[C@H](c3ccccc31)[C@H](CO)N2C(=O)c1ccccn1 |
| i | CCN1[C@H](C(=O)N(C)C)[C@@H](CO)[C@@H]2Cn3c(ccc(-c4ccc(OC)cc4)c3=O)[C@@H]21 |
| i | C[C@@H]1CN([C@@H](C)CO)S(=O)(=O)c2ccc(C#Cc3ccccc3)cc2O[C@@H]1CN(C)C(=O)CN(C)C |
| i | C[C@@H]1CN([C@H](C)CO)C(=O)c2cc(NC(=O)CCCCCC(=O)Nc3ccccc3N)ccc2O[C@@H]1CN(C)Cc1ccc(Cl)c(Cl)c1 |
| i | Cc1noc(C)c1S(=O)(=O)Nc1ccc2c(c1)C(=O)N([C@@H](C)CO)C[C@@H](C)[C@@H](CN(C)C(=O)Nc1ccccc1)OCCCC[C@H](C)O2 |
| i | CO[C@H]1CN(C)C(=O)c2ccc(NS(=O)(=O)c3cccc(F)c3)cc2OC[C@H](C)N(C(=O)Cc2cccnc2)C[C@H]1C |
| i | C[C@@H]1CCCCO[C@@H](CN(C)C(=O)CCCN(C)C)[C@@H](C)CN([C@@H](C)CO)C(=O)c2cc(NS(=O)(=O)c3ccccc3)ccc2O1 |
| i | O=C(C[C@H]1CC[C@H]2[C@@H](COC[C@@H](O)CN2S(=O)(=O)c2ccccc2)O1)N1CCOCC1 |
| i | CC(C)C#Cc1ccc2c(c1)O[C@H](CN(C)Cc1ccccn1)[C@@H](C)CN([C@@H](C)CO)S2(=O)=O |
| i | COc1cccc(C#Cc2ccc3c(c2)O[C@@H](CN(C)S(=O)(=O)c2ccccc2F)[C@H](C)CN([C@@H](C)CO)S3(=O)=O)c1 |
| i | COc1ccc(CN(C)C[C@H]2OCCCC[C@H](C)Oc3ccc(NC(=O)Cc4ccccc4)cc3C(=O)N([C@@H](C)CO)C[C@H]2C)cc1 |
| i | C[C@H]1CN([C@@H](C)CO)S(=O)(=O)c2ccc(-c3ccc(F)cc3)cc2O[C@@H]1CN(C)C(=O)Nc1ccccc1F |
| i | COc1ccc(S(=O)(=O)Nc2ccc3c(c2)C(=O)N([C@@H](C)CO)C[C@H](C)[C@H](CN(C)S(=O)(=O)c2cn(C)cn2)O3)cc1 |
| i | Cc1ccc(S(=O)(=O)N(C)C[C@H]2OCCCC[C@@H](C)Oc3ccc(NC(=O)Nc4cccc5ccccc45)cc3C(=O)N([C@@H](C)CO)C[C@H]2C)cc1 |
| i | O=C(C[C@@H]1C=C[C@@H](NC(=O)CN2CCOCC2)[C@H](CO)O1)NCc1cccc(F)c1 |
| i | C[C@H](CO)N1C[C@H](C)[C@@H](CN(C)C(=O)Nc2ccc(F)cc2)OCCCC[C@H](C)Oc2ccc(NS(=O)(=O)c3ccc(F)cc3)cc2C1=O |

| FGF22 binding | Structure |
| --- | --- |
| i | CCNC(=O)[C@H]1[C@H](CO)[C@H]2Cn3c(ccc(-c4ccccc4F)c3=O)[C@H]2N1C |
| i | C[C@@H]1CCCCO[C@@H](CN(C)Cc2ccncc2)[C@H](C)CN([C@H](C)CO)C(=O)c2cc(NS(=O)(=O)c3ccccc3)ccc2O1 |
| i | COc1ccc(NC(=O)Nc2ccc3c(c2)CC(=O)N([C@@H](C)CO)C[C@@H](C)[C@@H](CN(C)Cc2ccc(C(F)(F)F)cc2)O3)cc1 |
| i | CO[C@H]1CN(C)C(=O)c2cc(NC(=O)c3cnccn3)ccc2OC[C@@H](C)N(CCc2ccccc2)C[C@H]1C |
| i | C[C@@H]1CCCCO[C@@H](CN(C)Cc2ccc(C(=O)O)cc2)[C@@H](C)CN([C@H](C)CO)C(=O)c2cc(NS(C)(=O)=O)ccc2O1 |
| i | CNC[C@H]1Oc2ccc(NC(=O)C3CC3)cc2CC(=O)N([C@@H](C)CO)C[C@@H]1C |
| i | C/C=C/c1ccc([C@@H]2[C@H](CO)N(Cc3cncnc3)C23CN(C(=O)CC2CC2)C3)cc1 |
| i | C[C@@H]1CN([C@H](C)CO)C(=O)c2cccc(NC(=O)Nc3ccc(C(F)(F)F)cc3)c2O[C@H]1CN(C)Cc1ccncc1 |
| i | O=C(c1cccnc1)N1C[C@H]2[C@@H](c3ccccc31)[C@@H](CO)N2C(=O)C1CCCC1 |
| i | COc1ccc(NC(=O)N(C)C[C@@H]2OCCCC[C@H](C)Oc3ccc(NC(=O)Nc4ccc5c(c4)OCO5)cc3C(=O)N([C@H](C)CO)C[C@@H]2C)cc1 |
| i | C[C@@H]1CN([C@@H](C)CO)C(=O)Cc2cc(NC(=O)Nc3ccccc3)ccc2O[C@H]1CN(C)C(=O)NC1CCCCC1 |
| i | COc1ccc(NC(=O)N(C)C[C@@H]2Oc3ccc(NS(=O)(=O)c4ccc(F)cc4)cc3CC(=O)N([C@@H](C)CO)C[C@@H]2C)cc1 |
| i | Cc1ccc(S(=O)(=O)N(C)C[C@@H]2OCCCC[C@H](C)Oc3ccc(NC(=O)NC4CCCCC4)cc3C(=O)N([C@H](C)CO)C[C@H]2C)cc1 |
| i | C[C@H]1CN([C@@H](C)CO)C(=O)c2cc(NC(=O)Nc3ccc4c(c3)OCO4)ccc2O[C@@H]1CN(C)Cc1ccc(C(F)(F)F)cc1 |
| i | O=C(c1cccnc1)N1CC(=O)N2[C@H](CO)[C@@H](c3ccc(C#CCC4CCCC4)cc3)[C@H]2C1 |
| i | C[C@H](CO)N1C[C@H](C)[C@H](CN(C)C(=O)Nc2ccccc2F)Oc2cc(-c3ccc(F)cc3)ccc2S1(=O)=O |
| i | CS(=O)(=O)N1CC2(C1)[C@H](c1ccccc1)[C@H](CO)N2Cc1ccccn1 |
| i | Cc1ccc(S(=O)(=O)Nc2ccc3c(c2)C(=O)N([C@@H](C)CO)C[C@H](C)[C@@H](CN(C)S(=O)(=O)c2c(C)noc2C)OCCCC[C@H](C)O3)cc1 |
| i | O=C(NCC[C@H]1CC[C@H](NC(=O)C2CC2)[C@H](CO)O1)Nc1ccc(C(F)(F)F)cc1 |
| i | O=S(=O)(N[C@@H]1CC[C@@H](CCn2cc(-c3ccccn3)nn2)O[C@@H]1CO)c1cccc(Cl)c1 |
| i | C=C/C=C/[C@@H]1C(=C)CN2[C@H]1[C@H](Cc1ccccc1)OC(=O)[C@@H]2Cc1ccccc1 |
| i | O=C(O)C[C@@H]1C[C@H]2c3cc(NC(=O)NC4CCCC4)ccc3O[C@H]2[C@@H](CO)O1 |
| i | Cc1ccc(S(=O)(=O)N(C)C[C@H]2Oc3ccc(NS(=O)(=O)c4ccc(F)cc4)cc3CC(=O)N([C@H](C)CO)C[C@@H]2C)cc1 |
| i | CNC[C@@H]1OCCCC[C@@H](C)Oc2ccc(NC(=O)Nc3ccc4c(c3)OCO4)cc2C(=O)N([C@@H](C)CO)C[C@H]1C |
| i | COc1ccc2c3c(n(C)c2c1)[C@@H](CO)N(C(C)=O)CC31CN(Cc2cccnc2)C1 |
| i | C[C@@H]1CN([C@H](C)CO)C(=O)Cc2cc(NC(=O)CCC(F)(F)F)ccc2O[C@@H]1CN(C)S(=O)(=O)c1ccc(Cl)cc1 |
| i | Cc1ccc(S(=O)(=O)Nc2ccc3c(c2)C(=O)N([C@H](C)CO)C[C@@H](C)[C@H](CN(C)C(=O)NC2CCCCC2)OCCCC[C@@H](C)O3)cc1 |
| i | O=C(C[C@@H]1CC[C@H]2[C@@H](COC[C@@H](O)CN2S(=O)(=O)c2ccccc2F)O1)NCc1ccccc1F |
| i | O=C(NCC1CC1)[C@H]1[C@H](CO)[C@H]2Cn3c(ccc(-c4ccccc4)c3=O)[C@@H]1N2CC1CC1 |
| i | CC(C)NC(=O)N(C)C[C@H]1OCCCC[C@@H](C)Oc2ccc(NC(=O)NC3CCCCC3)cc2C(=O)N([C@H](C)CO)C[C@@H]1C |

Next section, overlapping the part above by four compounds.
| FGF22 binding | Structure |
| --- | --- |
| i | Cc1ccc(S(=O)(=O)Nc2ccc3c(c2)C(=O)N([C@H](C)CO)C[C@@H](C)[C@H](CN(C)C(=O)NC2CCCCC2)OCCCC[C@@H](C)O3)cc1 |
| i | O=C(C[C@@H]1CC[C@H]2[C@@H](COC[C@@H](O)CN2S(=O)(=O)c2ccccc2F)O1)NCc1ccccc1F |
| i | O=C(NCC1CC1)[C@H]1[C@H](CO)[C@H]2Cn3c(ccc(-c4ccccc4)c3=O)[C@@H]1N2CC1CC1 |
| i | CC(C)NC(=O)N(C)C[C@H]1OCCCC[C@@H](C)Oc2ccc(NC(=O)NC3CCCCC3)cc2C(=O)N([C@H](C)CO)C[C@@H]1C |
| i | COc1ccc(S(=O)(=O)Nc2ccc3c(c2)C(=O)N([C@@H](C)CO)C[C@@H](C)[C@@H](CN(C)Cc2ccc(Oc4ccccc4)cc2)O3)cc1 |
| i | C[C@H]1CN([C@@H](C)CO)C(=O)c2cccc(NC(=O)Nc3ccc4c(c3)OCO4)c2O[C@@H]1CN(C)S(C)(=O)=O |
| i | C[C@@H]1CCCCO[C@@H](CN(C)C(=O)c2ccccc2)[C@@H](C)CN([C@H](C)CO)C(=O)c2cc(NC(=O)c3ccccc3)ccc2O1 |
| i | CO[C@H](CN(C)S(=O)(=O)c1ccccc1)[C@H](C)CN(C(=O)Nc1ccccc1F)[C@H](C)CO |
| i | C[C@H](CO)N1C[C@H](C)[C@@H](CN(C)C(=O)Nc2ccccc2F)Oc2cc(-c3ccc(C(=O)N(C)C)cc3)ccc2S1(=O)=O |
| i | COc1ccc(S(=O)(=O)N(C)C[C@@H]2OCCCC[C@@H](C)Oc3ccc(NC(=O)c4ccccc4)cc3C(=O)N([C@H](C)CO)C[C@H]2C)cc1 |
| i | O=C(C[C@@H]1CC[C@H]2[C@@H](COC[C@H](O)CN2Cc2ccc3c(c2)OCO3)O1)Nc1ccccc1 |
| i | COc1ccc(NC(=O)Nc2ccc3c(c2)CC(=O)N([C@H](C)CO)C[C@H](C)[C@@H](CN(C)C(=O)Nc2ccc(OC)cc2)O3)cc1 |
| i | CO[C@H]1CN(C)C(=O)c2cc(NS(=O)(=O)c3ccccc3C)ccc2OC[C@@H](C)NC[C@H]1C |
| i | O=S(=O)(N[C@@H]1CC[C@H](CCn2cc(-c3ccccc3F)nn2)O[C@H]1CO)c1ccc(F)cc1 |
| i | C[C@@H]1CN([C@@H](C)CO)C(=O)c2cc(C#Cc3ccccc3)cnc2O[C@H]1CN(C)CC1CCOCC1 |
| i | C[C@@H]1CN([C@H](C)CO)C(=O)c2cc(-c3ccncc3)cnc2O[C@H]1CN(C)C(=O)Cc1cccnc1 |
| i | CCNC(=O)Nc1ccc2c(c1)C(=O)N(C)[C@@H]1CC[C@@H](CC(=O)Nc3ccccc3)O[C@H]1CO2 |
| i | C[C@H]1CCCCO[C@@H](CN(C)C(=O)Nc2ccc3c(c2)OCO3)[C@@H](C)CN([C@@H](C)CO)C(=O)c2cc(NC(=O)C3CCCCC3)ccc2O1 |
| i | CCCC(=O)Nc1ccc2c(c1)OC[C@@H](C)N(C(=O)c1cnccn1)C[C@@H](C)[C@H](OC)CN(C)C2=O |
| i | CO[C@@H]1CN(C)C(=O)c2cc(NC(=O)c3ccccc3F)ccc2OC[C@H](C)N(C(C)=O)C[C@@H]1C |
| i | C[C@H](CO)N1C[C@H](C)[C@@H](CN(C)C(=O)NC2CCCCC2)Oc2ncc(/C=C/c3ccccc3)cc2C1=O |
| i | C[C@H]1CN([C@@H](C)CO)C(=O)Cc2cc(NC(=O)Cc3cn(C)c4ccccc34)ccc2O[C@@H]1CN(C)Cc1ccncc1 |
| i | N#C[C@@H]1[C@H](c2ccccc2C2=CCCC2)[C@@H](CO)N1C(=O)C1CC1 |
| i | C[C@H]1CN([C@@H](C)CO)C(=O)c2cc(C#CCC3CCCC3)cnc2O[C@@H]1CN(C)CC1CCOCC1 |

Molecules listed so far that contain a Cl atom, in the order listed:
| FGF22 binding | Structure |
| --- | --- |
| i | C[C@@H]1CN([C@H](C)CO)C(=O)c2cc(NC(=O)CCCCCC(=O)Nc3ccccc3N)ccc2O[C@@H]1CN(C)Cc1ccc(Cl)c(Cl)c1 |
| i | O=S(=O)(N[C@@H]1CC[C@@H](CCn2cc(-c3ccccn3)nn2)O[C@@H]1CO)c1cccc(Cl)c1 |
| i | C[C@@H]1CN([C@H](C)CO)C(=O)Cc2cc(NC(=O)CCC(F)(F)F)ccc2O[C@@H]1CN(C)S(=O)(=O)c1ccc(Cl)cc1 |

Bioassay records as filed in PubChem.
